Assay outcomes as filed in PubChem BioAssay.
VACV Venus inh = qHTS for Stage-Specific Inhibitors of Vaccinia Orthopoxvirus: Venus Reporter Primary qHTS; Potency, µM (series often up to 36.5 µM), for inactives: top-dose activity change, negative = inhibition, actives largely listed as inhibitors; AID 720580, 2013; Vaccinia virus Venus reporter expression, fluorescence; 330,000 tested, 0.46% active; active means well fitted inhibition curve with a large enough effect; inconclusive means small, poorly fitted or top-dose-only effect; inactive means no such curve, though single readings can be large or run the other way; tested in A549 cells; note: nearly all actives have a fitted effect of over 30% in size; inactives centre near -10
Vaccinia mCherry = qHTS for Stage-Specific Inhibitors of Vaccinia Orthopoxvirus: mCherry Reporter Primary qHTS | AID 720579, 2013 | 310,000 tested, 0.63% active | Potency, µM (titrated, usually from 36.5 µM), for inactives: at the top dose activity change, negative = inhibition, most hits filed as inhibitors | Vaccinia virus mCherry reporter infection, fluorescence; about a quarter of the inactives have no number; active = well fitted inhibition curve with a large enough effect; inconclusive = small, poorly fitted or top-dose-only effect; inactive = no such curve, though single readings can be large or run the other way; tested in A549 cells; note: nearly all actives have a fitted effect of over 35% in size; inactives centre near -10
Numbers without * were called inactive; i = inactive; u = inconclusive; x = not tested or not shown; [ ] = dose if it differs, or a comment. % is set by controls: 0 for no effect and ±100 for the full control effect; potency is the fitted concentration of half-maximal effect.

SMILES	VACV Venus inh	Vaccinia mCherry
O=C(O)c1cccc(-c2csc(C(O)c3cccc(Cl)c3)n2)c1 (centres undefined)	0.2%	i
COC(/C=C/Nc1ccc(C)c(C)c1)=C(C#N)C#N	-1.3%	-12.4%
Cc1nc2nncn2c(Nc2ccccc2)c1C	-9.0%	-7.0%
O=C(NCCc1ccccc1)N1c2ccccc2Sc2ccccc21	-30.3%	-13.8%
COc1ccc2c(c1)-c1nc(NC(=O)c3cccs3)sc1CC2	u	x
O=C(COC(=O)c1cc(S(=O)(=O)N2CCOCC2)ccc1Cl)NCc1ccco1	-12.6%	-3.6%
Cc1ccc2c(c1)N(CC(=O)Nc1ccc3c(c1)OCCO3)C(=O)CO2	0.3%	-20.9%
CCS(=O)(=O)c1ccc(O)c(NC(=O)/C=C/c2ccccc2)c1	-4.5%	-2.5%
CCN(CC)c1nc(NN)nc(Nc2ccc(C)c(Cl)c2)n1	-14.6%	i
CCCCN(CCCC)C(=O)c1c[nH]c2ccc(S(=O)(=O)Nc3cccc(Cl)c3C)cc2c1=O	-6.6%[7.34 µM]	-2.9%[7.34 µM]
COc1ccc(NC(=O)CCS(=O)(=O)c2ccc3c(c2)oc(=O)n3C)cc1OC	-1.6%	-9.0%
c1ccc(CNc2c(-c3cccc(SC4CCCCC4)c3)nc3ccccn23)cc1	u	-18.3%
COc1cc(OC)cc(C(=O)NC(=S)Nc2ccc(NC(=O)c3ccco3)cc2)c1	-25.1%	i
CCOC(=O)Cn1cnc2scc(-c3ccc(C)cc3)c2c1=O	-10.0%	i
Cc1ccc(-c2csc(C(C)(O)c3cccc(F)c3)n2)cc1C (centres undefined)	-2.4%	-29.2%
O=C(COC(=O)c1cc(S(=O)(=O)Nc2ccccc2Cl)ccc1O)Nc1ccc(F)c(F)c1F	7.9%	i
COc1cccc(NC(=O)[C@H](Cc2c[nH]c3ccccc23)NC(=O)[C@@H]2Cc3ccccc3CN2)c1	27.9%	u
CC(C)CC1Nc2ccc(C(=O)NCCCN3CCOCC3)cc2NC1=O (centres undefined)	1.4%	u
COc1cc(/C=C2/C(=N)N3C=CSC3=NC2=O)ccc1OCCCOc1cc(C)ccc1C	-2.7%	-12.9%
COc1ccc(Br)cc1S(=O)(=O)n1ccnc1	-16.2%	-29.2%
COCCn1c(N2CCN(c3ccccc3)CC2)nc2c1c(=O)n(C)c(=O)n2C	-2.4%	-15.4%
CC1(C)O[C@H]2[C@@H](O1)[C@@H](C(=O)Nc1ccccc1C(F)(F)F)O[C@@H]1OC(C)(C)O[C@@H]12	-19.6%	u
O=C(CSC1=NCCS1)NCc1ccco1	-0.7%	-13.8%
CN(C)S(=O)(=O)c1cc(NC(=O)CN2CCNC(=O)C2)ccc1Cl	-5.1%	-11.7%
COc1ccc(NC(=O)CCCNC(=O)Cn2cnc3sc(C)c(C)c3c2=O)c(OC)c1	-9.6%	-16.4%
COC(=O)CN1C(=O)C(C)(C)c2cc(S(=O)(=O)NCc3ccc(Cl)cc3)ccc21	-3.8%	-11.0%
CCCc1ccc2oc(C(=O)NCCc3cnn(C)c3)c(C)c2c1	-17.0%	-9.8%
O=C(Nc1cccc([N+](=O)[O-])c1)c1cc(S(=O)(=O)Nc2ccccn2)ccc1Cl	-9.5%	-13.5%
CCOC(=O)c1c(NC(=S)Nc2ccc(Cl)cc2)sc(C)c1C	1.1%	-12.4%
CC(=O)N1CCN(c2c(F)c(F)c(C(F)(F)F)c(F)c2F)CC1	-25.2%	-23.4%
COc1cc(-c2nc3ccccn3c2/N=C/c2ccc(F)cc2)ccc1O	-8.8%	-15.6%
Cc1ccc(-c2cc(C(F)(F)F)nc(SCC(=O)c3cccc([N+](=O)[O-])c3)n2)cc1	12.8%	1.8%
Cc1ccccc1-c1nc(CS(=O)(=O)CC(=O)NCCCc2ccccc2)c(C)o1	-11.8%	-10.1%
N#CCCn1cc(C(N)=O)c(-c2ccc3ccccc3c2)n1	-8.3%	-4.7%
CCC(=O)N1CCC1(C)C(=O)Nc1cc(OC)ccc1OC (centres undefined)	2.9%	-1.1%
O=C(COc1ccc2c(-c3ccccc3)cc(=O)oc2c1)Nc1ccc(CN2CCOCC2)cc1	-1.6%	-3.3%
CN(C)c1ccc(NC(=O)Oc2ccccc2)cc1	-13.2%	-9.1%
COc1ccc2[nH]c3c(c2c1)CCN1C(=O)C(CC(=O)NCCc2ccccn2)C[C@H](C(=O)N2CCCCC2)[C@@]31CCc1ccccc1 (some centres undefined)	-28.4%	u
O=S1(=O)CC(N2CCN(c3ccccn3)CC2)CN1Cc1ccc(F)cc1 (centres undefined)	-9.0%	31.5%[activator]
CCOC(=O)Cc1ccc(Nc2nc3cc(-c4ccccc4C)sc3c(=O)n2C)cc1	-16.3%	-20.3%
Cc1cc(OC(=O)c2ccccc2C(F)(F)F)c([N+](=O)[O-])c(=O)[nH]1	-12.7%	i
O=C(Nc1ccc([N+](=O)[O-])cn1)c1cc(-c2cccc(Cl)c2)nc2ccccc12	-6.8%	-8.1%
Cc1ccc(-n2nc(C(=O)O)c(C)c(C#N)c2=O)cc1Cl	-11.8%	-9.0%
O=C(NCCC1=CCCCC1)C1CCN(S(=O)(=O)c2cccc3nsnc23)CC1	-9.5%	-8.2%
CCOC(=O)C1(C)CCN1C(=O)CSc1ccccc1 (centres undefined)	1.5%	i

Part of the list above, with two lines to a compound:
Every second line gives: VACV Venus inh	Vaccinia mCherry
- O=C(COC(=O)c1cc(S(=O)(=O)Nc2ccccc2Cl)ccc1O)Nc1ccc(F)c(F)c1F
 : 7.9%	i
- COc1cccc(NC(=O)[C@H](Cc2c[nH]c3ccccc23)NC(=O)[C@@H]2Cc3ccccc3CN2)c1
 : 27.9%	u
- CC(C)CC1Nc2ccc(C(=O)NCCCN3CCOCC3)cc2NC1=O (centres undefined)
 : 1.4%	u
- COc1cc(/C=C2/C(=N)N3C=CSC3=NC2=O)ccc1OCCCOc1cc(C)ccc1C
 : -2.7%	-12.9%
- COc1ccc(Br)cc1S(=O)(=O)n1ccnc1
 : -16.2%	-29.2%
- COCCn1c(N2CCN(c3ccccc3)CC2)nc2c1c(=O)n(C)c(=O)n2C
 : -2.4%	-15.4%
- CC1(C)O[C@H]2[C@@H](O1)[C@@H](C(=O)Nc1ccccc1C(F)(F)F)O[C@@H]1OC(C)(C)O[C@@H]12
 : -19.6%	u

(list continues)
SMILES	VACV Venus inh	Vaccinia mCherry
O=[N+]([O-])c1ccc2c(c1)C=C/C2=C\c1ccc(C=S)cc1	-15.6%	-23.8%
CCOC(=O)c1ccc(NC(=O)c2cccn(Cc3ccccc3F)c2=O)cc1	-20.7%	-20.8%
Cc1ccc(NC(=O)/C(Cl)=C\c2ccccc2)cc1	-21.1%	i
COc1ccc(Nc2ncc(C(=O)N3CCN(c4ccc(F)cc4)CC3)c3ccccc23)cc1	-14.8%	-21.4%
CCCOP(=O)(OCCC)c1c([N+](=O)[O-])cc(C(F)(F)F)cc1[N+](=O)[O-]	u	x
Cc1c(C(=O)NCc2ccc3c(c2)OCO3)cnn1-c1ncc2c(n1)-c1ccccc1CC2	u	u
CCOC(=O)C(=CN(CCc1ccccc1)CC(=O)OC)C(=O)OCC	-2.3%	i
C[N+]1([O-])CCC[C@@H]1c1cccnc1 (some centres undefined)	-9.3%	i
COC(=O)c1c(NC(=O)CN2CCN(C(=O)c3ccco3)CC2)c2c(C)cccc2n1C	-3.6%	x
O=C(c1ccco1)c1cn(CCOc2ccc(F)cc2)c2ccccc12	-3.7%	2.2%
Cc1cn([C@H]2C[C@H](O)[C@@H](/C=C/C(=O)NCc3ccc(N(C)C)cc3)O2)c(=O)[nH]c1=O	-5.2%	7.4%
CC(C)(C)OC(=O)C[C@H]1C/C=C\C[C@@H](CC(=O)N(CCO)Cc2ccccc2)C(=O)NC[C@H](c2ccccc2)OC1=O	-23.5%	-13.5%
N=C1c2ccccc2CN1NC(=O)C1CC1	-8.1%	-10.0%
Cc1cnc(CNc2nc3cc(-c4ccccc4C)sc3c(=O)n2C)cn1	-12.2%	7.1%
COCCCNc1ncnc2sc3c(c12)CCC(C)C3 (centres undefined)	-8.7%	x
Cc1ccc(NC(=O)NNC(=O)c2sccc2-n2cccc2)cc1	-13.5%	-19.7%
C[C@]1(C(=O)O)Cc2oncc2C[C@@H]1C(=O)O	-5.4%	-13.1%
Cc1onc(-c2c(F)cccc2Cl)c1C(=O)Nc1ccc(OC(C)C)cc1	-2.2%	-3.1%
CCC(=O)N1CCc2cc(Br)cc(S(=O)(=O)CCC(=O)N(C)c3cccc(C)c3)c21	-5.2%	-16.9%
COC(=O)N/N=C/c1ccccc1	-6.6%	-4.3%
Cc1ccc(CN2CCC(n3nccc3NC(=O)C3CCOC3)CC2)cc1 (centres undefined)	-10.5%	-5.3%
CCCCN(C(=O)CSCC(=O)Nc1ccc(OC)cc1)c1c(N)n(CC(C)C)c(=O)[nH]c1=O	2.3%	-10.0%
Cc1ccc(S(=O)(=O)n2nc(OC(=O)c3ccccc3F)cc2N)cc1	-9.9%	-21.1%
CCn1cc(S(=O)(=O)CC(=O)N2CCc3ccccc32)c2ccccc21	-4.1%	i
Cc1c(C)n(CCc2ccccc2)c2ncnc(NCCCN(C)C)c12	u	7.08µM*
O=C(Nc1ccccc1)c1cccc(S(=O)(=O)Nc2cccc(F)c2)c1	9.3%	-10.4%
CN1CCN(c2nccc3c2ncn3C)CC1	-10.7%	-19.6%
CC(C)CCNC(=O)CN(CCCN1CCOCC1)C(=O)Cn1nnc(-c2ccc(F)cc2)n1	-10.1%	-13.2%
CCc1cccc(CC)c1NC(=O)COC(=O)CC1c2ccccc2CCN1S(=O)(=O)c1ccc(F)cc1 (centres undefined)	-16.4%	-26.5%
Cc1ccc(NC(=O)CCC(=O)N/N=C/c2cccnc2)cc1	-2.9%	-15.6%
CCOc1ccc(-n2c(SCC(=O)Nc3ccccc3OC)nc3c(oc4ccccc43)c2=O)cc1	-3.1%	1.6%
CCc1cc(=O)oc2cc(C)cc(OCC(=O)NC(Cc3c[nH]c4ccc(O)cc34)C(=O)O)c12 (centres undefined)	2.5%	-1.3%
Cc1ccc(C2=N/C(=C/c3cccs3)C(=O)N2Nc2ccccc2)cc1	-20.3%	-9.6%
Cc1ccc(Oc2ccc(S(=O)(=O)N3CCOCC3)cc2C(N)=O)cc1C	-16.6%	-19.4%
COc1ccc(CCNC(=O)c2c[nH]c3ccccc3c2=O)cc1OC	-10.6%	-18.1%
COc1ccc(OC)c(NS(=O)(=O)c2c(C)nc3sccn3c2=O)c1	-14.8%	-26.5%
CCc1ccc(NC(=O)Cn2c(=O)n(CCCCC(=O)NCc3ccc4c(c3)OCO4)c(=O)c3ccccc32)cc1	-13.8%	-20.0%
O=C(COc1ccc(F)cc1)OCCN1CCOCC1	-10.2%	-13.0%
Cc1ccc2nsnc2c1NC(=O)c1ccc([N+](=O)[O-])o1	-22.0%	-26.1%
Cc1cccc(NC(=O)Cn2nc(-c3ccc(Cl)cc3)c3ccccc3c2=O)c1	-8.2%[7.34 µM]	-11.3%[7.34 µM]
CC(=O)OC1N=C(c2ccccc2)c2cc(C)ccc2NC1=O (centres undefined)	-29.2%	x
O=C(Nc1ccccc1)C1Cc2c(-c3ccc4c(c3)OCO4)ccnc2O1 (centres undefined)	-4.4%	25.0%
O=C(N/N=C/c1ccncc1)C1CC1C(=O)N/N=C/c1ccncc1 (centres undefined)	-11.7%	-14.7%
CC(C)C(NS(=O)(=O)c1ccc2c(c1)oc(=O)n2C)C(=O)N1CCN(c2ccccc2F)CC1 (centres undefined)	-6.8%	i
COc1cccc(N/N=C/c2cccc(Br)c2O)c1	-7.3%	u
Cc1ccc(C)c(SCC(=O)Nc2ccc(S(=O)(=O)Nc3ncccn3)cc2)c1	-4.4%	i
CCC(Sc1nc2n[nH]c(C)c2c(=N)n1-c1cc(Cl)ccc1C)C(=O)N1CCOCC1 (centres undefined)	u	x
CCCNC(=O)Cn1cnc([N+](=O)[O-])n1	-0.7%	-12.4%
COc1ccc(CNC(=O)C2CCN(C(=O)c3sccc3-n3cccc3)CC2)cc1	3.1%[7.34 µM]	8.6%[7.34 µM]
Cc1ccc(-c2nc(-c3ccccn3)no2)cc1	-14.4%	-18.2%
Cc1c(Cl)cccc1NC(=S)NCC(O)c1ccccc1 (centres undefined)	-14.7%	-20.5%
Cc1ccc(OCC(=O)N2CCN(S(C)(=O)=O)CC2)cc1	-10.7%	-0.1%
COc1ccc(CNc2ccc3c(c2)ncn3C)cc1OC	-17.0%	u
Cc1ccc(NC(=O)c2cc(S(=O)(=O)NCCc3ccc(Cl)cc3)ccc2F)cc1	-14.3%	-22.2%
CC(C)(C)c1ccc(C(=O)Nc2ccccc2NC(=O)c2ccco2)cc1	u	x
O=C(CN1C(=O)NC2(CCCCCC2)C1=O)NCc1ccc(F)cc1	-16.8%	-21.7%
O=C(COC(=O)c1cccc(Cl)c1)NCCN1C(=O)CSC1=O	-18.3%	-19.8%
CCC(C)(C)n1nnnc1C(c1ccccn1)N1CCCCC1 (centres undefined)	-4.4%	-6.2%
COc1ccc2c(-c3ccccc3)cc(=S)[nH]c2c1	-20.9%	-24.9%
CC(C)c1ccc(C2=CC(c3ccc(C(C)C)cc3)n3nnnc3N2)cc1 (centres undefined)	-24.4%	u
COc1cc(C)nc(N2CCC(C(=O)NCC3CCCO3)CC2)n1 (centres undefined)	-4.8%	-14.2%

Complete entries, looked up by structure. Screens in order: VACV Venus inh	Vaccinia mCherry
`Cc1c(Cl)cccc1NC(=S)NCC(O)c1ccccc1` (centres undefined) in the list: -14.7%	-20.5%
`CCC(C)(C)n1nnnc1C(c1ccccn1)N1CCCCC1` (centres undefined) in the list: -4.4%	-6.2%
